# Bfl-1 inhibitors: displacement of Bid BH3 peptide from Bfl-1 – biochemical, fluorescence polarization, FITC-Bid, mouse, primary screen (AID 432) | FITC-Bid BH3 peptide fluorescence polarization displacement; higher % means a stronger effect | displacement, % at 20 µM, or IC50 in µM where a hit was titrated | 64,000 tested, 0.02% active; in the data active = a potency from the dose series; inactive = the rest, 99 in 100 with displacement below about 15%; note: strong numbers were not always called active
# LYP phosphatase: LYP phosphatase inhibitors, primary screen, biochemical, DiFMUP fluorescence, recombinant catalytic domain, 10 µM (AID 606). recombinant LYP catalytic domain, DiFMUP fluorescence; higher % means a stronger effect. inhibition, % at 10 µM, or IC50 in µM where a hit was titrated. 52,000 tested, under 10 active;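 active = IC50 under 40 µM in the dose-response test; inactive = IC50 of 40 µM or more, or never dose-tested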
# HPDE-C7 viability: HPDE-C7 pancreatic duct cell viability loss – fluorescence, HTS (AID 430); HPDE-C7 pancreatic duct cells viability, fluorescence; higher % means a stronger effect; cytotoxicity, % at 10 µM, or EC50 in µM where a hit was titrated; 63,000 tested, 1.8% active;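 note: cells exposed to compound for 48 hours before viability readout; 0% = vehicle and 100% = reference cytotoxic drug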
# HPDE-C7K KRASV12: viability loss of HPDE-C7K cells – cell-based, fluorescence, HTS, primary screen (AID 431); 63,000 tested, 1.7% active; HPDE-C7K KRASV12 cells, Alamar Blue viability, 48 h; higher % means a stronger effect; one-dose cytotoxicity, % at 10 µM; EC50 in µM for titrated hits;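 active = compounds whose percent cytotoxicity in the single-dose primary screen, scaled between solvent and toxic-drug controls, exceeds 50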;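 note: 0% = DMSO solvent wells and 100% = doxorubicin-treated wells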
# TNAP inhibition: human TNAP enzyme inhibitors, biochemical, luminescent (AID 518). purified TNAP enzyme, luminescent substrate readout; higher % means a stronger effect. one-dose inhibition, % at 20 µM; IC50 in µM for titrated hits. 64,000 tested, 0.09% active; in the data active = a potency from the dose series; inactive = the rest, 99 in 100 with inhibition below about 22%;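 note: plate controls were vehicle for no effect and reference inhibitor for full effect; many of its hits are not listed in these tables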
# HT1080 cytotoxicity: cytotoxicity in HT1080 fibrosarcoma cells, cell-based, fluorescence readout (AID 620) | HT1080 viability, fluorescence; higher % means a stronger effect | one-dose cytotoxicity, % at 10 µM; EC50 in µM for titrated hits | 87,000 tested, 0.42% active;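 note: cells exposed to compound overnight then 4 h with Alamar Blue; 0% = vehicle DMSO and 100% = killing control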
# * = called active by the depositor; . = not tested or not shown. Cut-off read from the data, not from the text of the source, unless noted: active = cytotoxicity above about 50%; inactive = the rest. Not all compounds are listed. The share of hits here may be higher or lower than overall.
# Screens by letter: A = Bfl-1 inhibitors; B = LYP phosphatase; C = HPDE-C7 viability; D = HPDE-C7K KRASV12; E = TNAP inhibition; F = HT1080 cytotoxicity
> Cc1cc(N2CCN(C3CCCCC3)CC2)n2nc(C)nc2n1
  A = 8%	B = -9%	C = -1%	D = 3%	E = 6%	F = -4%
> O=C(CNCC1CCCO1)Nc1ccccc1N1CCOCC1 (stereo not given)
  A = -3%	B = .	C = -4%	D = -7%	E = 7%	F = -11%
> O=C(Nc1ccc2c(c1)OCO2)c1nn(-c2ccccc2)c(=O)c2ccccc12
  A = -2%	B = -4%	C = 7%	D = -5%	E = 9%	F = -1%
> CCOc1ccccc1NC(=O)c1ccccc1NS(C)(=O)=O
  A = -1%	B = 11%	C = 7%	D = 10%	E = 6%	F = -2%
> Cc1cccc(NC(=O)c2cnc3sccn3c2=O)n1
  A = 1%	B = 3%	C = -3%	D = 10%	E = 8%	F = .
> Cc1nc(CSc2nnc3scc(-c4ccccc4)n23)cs1
  A = -8%	B = 2%	C = -4%	D = 1%	E = 6%	F = 4%
> COc1cccc(C(CC(=O)NCC2CCCO2)NS(=O)(=O)c2ccc(C)cc2)c1OC (stereo not given)
  A = -10%	B = -4%	C = -12%	D = 3%	E = -1%	F = 0%
> O=c1oc2ccccc2n1Cc1ccccc1Cl
  A = 0%	B = -7%	C = 2%	D = 9%	E = 11%	F = 0%
> Cc1cccc(-c2nnc(-c3ccc(N)cc3)o2)c1
  A = -4%	B = -3%	C = -2%	D = -2%	E = 4%	F = -4%
> CCOC(=O)CN(C)Cc1c[nH]c2ccccc12
  A = -8%	B = .	C = -8%	D = 8%	E = 15%	F = -4%

# Next part
# Screens by letter: A = Bfl-1 inhibitors; B = LYP phosphatase; C = HPDE-C7 viability; D = HPDE-C7K KRASV12; E = TNAP inhibition; F = HT1080 cytotoxicity
> COc1ccc(C(=O)N2CCCN(C)CC2)cc1S(=O)(=O)N1CCCc2ccccc21
  A = -5%	B = 3%	C = 3%	D = 1%	E = 8%	F = 1%
> COc1cccc(NC(=O)C2CCCN(S(=O)(=O)c3cccc4cccnc34)C2)c1 (stereo not given)
  A = -3%	B = 2%	C = 23%	D = 20%	E = 22%	F = -1%
> COc1cccc(C(=O)OCn2nnc3ccccc3c2=O)c1
  A = -7%	B = 4%	C = -14%	D = -15%	E = 8%	F = -2%
> CCOC(=O)N1CCN(C2CC(=O)N(c3ccc(C)cc3)C2=O)CC1 (stereo not given)
  A = 3%	B = 8%	C = 7%	D = 0%	E = 4%	F = 4%
> CCN(CC)S(=O)(=O)c1cccc(-c2nnc(SC(C)C(=O)NCCC3=CCCCC3)o2)c1 (stereo not given)
  A = -4%	B = 4%	C = 6%	D = 7%	E = 2%	F = 8%
> Cn1c(=O)c2cc(S(=O)(=O)Nc3ccc4c(c3)OCO4)ccc2n(C)c1=O
  A = 14%	B = -7%	C = 0%	D = -8%	E = 4%	F = 3%
> Cc1ccc(-c2nc3ccccc3c(=O)n2CCN2CCOCC2)cc1
  A = -3%	B = 0%	C = 4%	D = 9%	E = 5%	F = -1%
> COC(=O)c1onc(C(=O)c2ccccc2)c1C(=O)OC
  A = 0%	B = -5%	C = 8%	D = 6%	E = 16%	F = -1%
> Cc1cc(NC(=O)COC(=O)C2COc3ccccc3O2)no1 (stereo not given)
  A = -3%	B = -6%	C = -38%	D = -2%	E = 9%	F = -5%
> O=C(c1ccccc1CCc1ccccc1)N1CCOCC1
  A = -2%	B = 3%	C = -7%	D = 2%	E = 2%	F = 9%

# (continued)
# Screens by letter: A = Bfl-1 inhibitors; B = LYP phosphatase; C = HPDE-C7 viability; D = HPDE-C7K KRASV12; E = TNAP inhibition; F = HT1080 cytotoxicity
> O=C(c1ccco1)N1CCN(CC(O)Cn2c3ccccc3c3ccccc32)CC1 (stereo not given)
  A = -4%	B = -12%	C = 27%	D = 30%	E = 3%	F = 9%
> Nc1nc(SCc2ccc(Cl)cc2)ns1
  A = 3%	B = 14%	C = 7%	D = -2%	E = 17%	F = 0%
> COc1ccc(CNC(=O)c2cc(-c3ccccc3OC)on2)cc1
  A = -2%	B = -10%	C = -1%	D = 8%	E = 5%	F = -4%
> CCn1c(C)c(C(C)=O)c(NCc2ccccc2)nc1=S
  A = 4%	B = 1%	C = -6%	D = -20%	E = 1%	F = 5%
> O=C(O)C(c1ccccc1)C1(O)CCCC1 (stereo not given)
  A = -3%	B = 12%	C = 5%	D = -5%	E = 2%	F = 15%
> COc1ccccc1Oc1nc2c(c(=O)n(Cc3ccccc3F)c(=O)n2C)n1C
  A = 0%	B = 7%	C = 10%	D = 19%	E = 6%	F = 7%
> Cc1ccc(C2N(c3cccc(Cl)c3)C(=O)C3CCCN32)o1 (stereo not given)
  A = 20%	B = 11%	C = -13%	D = 0%	E = 5%	F = -3%
> O=S(=O)(Nc1ccc(S(=O)(=O)N2CCOCC2)cc1)c1ccccc1
  A = 0%	B = .	C = 4%	D = 8%	E = 4%	F = -12%
> CCOC(=O)N1CCN(Cc2cn3ccccc3n2)CC1
  A = -8%	B = 5%	C = -8%	D = -7%	E = -1%	F = .
> CC(=O)Nc1c(O)n(C)c2ccccc12
  A = 1%	B = .	C = -20%	D = 4%	E = 18%	F = -8%

# The list goes on.
# Screens by letter: A = Bfl-1 inhibitors; B = LYP phosphatase; C = HPDE-C7 viability; D = HPDE-C7K KRASV12; E = TNAP inhibition; F = HT1080 cytotoxicity
> O=C(NCc1ccco1)c1ccc(S(=O)(=O)c2cccc(S(=O)(=O)N3CCOCC3)c2)cc1
  A = -8%	B = 1%	C = -15%	D = -19%	E = 1%	F = 1%
> CCOC(=O)Cn1c(=O)oc2cc(S(=O)(=O)Nc3cc(Cl)ccc3OC)ccc21
  A = -30%	B = .	C = 9%	D = 1%	E = 4%	F = .
> CCCCN1C(=O)CC(Nc2ccc(CC)cc2)C1=O (stereo not given)
  A = -6%	B = -1%	C = 10%	D = 2%	E = 6%	F = 10%
> CCS(=O)(=O)N1CCCC(C(=O)NCCN(C)Cc2ccccc2)C1 (stereo not given)
  A = 3%	B = .	C = -15%	D = -19%	E = 3%	F = 9%
> CCCCC(=O)Nc1ccc2c(c1)C(=O)NC2=O
  A = 0%	B = 1%	C = -3%	D = -3%	E = 10%	F = .

# An excerpt from above in order of molar mass, lowest first:
# Screens by letter: A = Bfl-1 inhibitors; B = LYP phosphatase; C = HPDE-C7 viability; D = HPDE-C7K KRASV12; E = TNAP inhibition; F = HT1080 cytotoxicity
> CC(=O)Nc1c(O)n(C)c2ccccc12
  A = 1%	B = .	C = -20%	D = 4%	E = 18%	F = -8%
> O=C(O)C(c1ccccc1)C1(O)CCCC1 (stereo not given)
  A = -3%	B = 12%	C = 5%	D = -5%	E = 2%	F = 15%
> CCCCC(=O)Nc1ccc2c(c1)C(=O)NC2=O
  A = 0%	B = 1%	C = -3%	D = -3%	E = 10%	F = .
> Nc1nc(SCc2ccc(Cl)cc2)ns1
  A = 3%	B = 14%	C = 7%	D = -2%	E = 17%	F = 0%
> CCCCN1C(=O)CC(Nc2ccc(CC)cc2)C1=O (stereo not given)
  A = -6%	B = -1%	C = 10%	D = 2%	E = 6%	F = 10%
> CCn1c(C)c(C(C)=O)c(NCc2ccccc2)nc1=S
  A = 4%	B = 1%	C = -6%	D = -20%	E = 1%	F = 5%
> Cc1ccc(C2N(c3cccc(Cl)c3)C(=O)C3CCCN32)o1 (stereo not given)
  A = 20%	B = 11%	C = -13%	D = 0%	E = 5%	F = -3%
> COc1ccc(CNC(=O)c2cc(-c3ccccc3OC)on2)cc1
  A = -2%	B = -10%	C = -1%	D = 8%	E = 5%	F = -4%
> CCS(=O)(=O)N1CCCC(C(=O)NCCN(C)Cc2ccccc2)C1 (stereo not given)
  A = 3%	B = .	C = -15%	D = -19%	E = 3%	F = 9%
> COc1ccccc1Oc1nc2c(c(=O)n(Cc3ccccc3F)c(=O)n2C)n1C
  A = 0%	B = 7%	C = 10%	D = 19%	E = 6%	F = 7%
> O=C(NCc1ccco1)c1ccc(S(=O)(=O)c2cccc(S(=O)(=O)N3CCOCC3)c2)cc1
  A = -8%	B = 1%	C = -15%	D = -19%	E = 1%	F = 1%

# Compound activity (PubChem BioAssay)
